Mtb H37Rv: Mycobacterium tuberculosis H37Rv growth inhibition, cell based, confirmatory dose response (AID 1949) | most inactive calls were filed without a number and no value below 0 was filed | inhibition, % at 10 µg/mL; hits with a dose series show IC50 in µg/mL | hit rate 1.6% among 100,000;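 active = confirmed in a dose series; inconclusive = about 50% or more but not retested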;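 also: bacteria grown 7 days with compound before Alamar blue readout; 0% = untreated bacteria and 100% = reference antibiotic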
Active calls of the source: *; i = inactive; ? = inconclusive. An excerpt (hit frequency here may not be typical).

molecule	Mtb H37Rv
Cc1nn(Cc2cccc(C(F)(F)F)c2)c(C)c1[N+](=O)[O-]	i
Cc1ccnn2cc3c(=O)n(C)c(=O)n(C)c3c12	i
COCCN1C=C(C(=O)OC)C(c2cc(Br)c(OC)c(OC)c2)C(C(=O)OC)=C1	i
Cc1ccc(OCCCCN2CCOCC2)c([N+](=O)[O-])c1	i
CC(=O)Nc1ccc(NC(=O)CNS(=O)(=O)c2c(C)cc(C)cc2C)cc1	i
Cc1cc(C)c2c(n1)sc1c(SCc3ccccc3)nc(C)nc12	1.6%
C=CCNC(=O)c1ccc(N(Cc2ccccc2)S(C)(=O)=O)cc1	i
NC(=O)C1(N2CCCCC2)CCN(CC(=O)Nc2ccc(Cl)cc2C(=O)c2ccccc2)CC1	4.0%
COc1ccc2c(c1)c(=O)oc1c(C)c(OCC=C(C)C)ccc12	i
C=CCNC(=S)N1CCN(C(=S)NCC=C)CC1	0.5%
O=C(O)c1ccc(Cl)c(NC(=S)NC(=O)c2cc3ccccc3o2)c1	38.3%
C=CCNC(=S)NNC(=O)Cc1cccs1	i
Cc1ccc(SCCNC(=O)c2ccc(F)cc2)cc1	i
COc1ccc(C(=O)Nc2nc(-c3ccc(S(=O)(=O)N4CCCC4)cc3)cs2)cc1	i
CS(=O)(=O)N(CC(=O)Nc1cccc(C(F)(F)F)c1)c1cc(Cl)ccc1Cl	i
CCC(Oc1ccccc1)C(=O)Nc1ccc(F)cc1 (stereo not given)	i
CCN(CC)c1ccc(/C=C(\NC(=O)c2ccccc2)C(=O)NN)cc1	i
Nc1cc(=O)nc(SCC(=O)N(C2CCCCC2)C2CCCCC2)n1-c1ccccc1	0.1%
CC1(C(=O)O)CCC(C(=O)Nc2nccs2)C1(C)C (stereo not given)	i
CCCNC(=O)c1ccccc1NC(=O)Cc1cccc2ccccc12	i
CCOC(=O)c1c(C)[nH]c(C(=O)CSc2ncnc3sc(C)c(C)c23)c1C	i
O=C(C1CCCCC1)N(Cc1cc2ccccc2[nH]c1=O)CC1CCCO1 (stereo not given)	i
O=c1ccc2ccc(OCc3ccc(Br)cc3F)cc2o1	i
COc1ccc(C(=O)Oc2cc(-c3ccc(OC)cc3)cc(=O)c3c(C)oc(C)c23)cc1	i
Cc1ccc(CNc2oc(-c3ccccc3)nc2C#N)cc1	i
Cc1ccc(C(=O)C(OC(=O)CNC(=O)c2cccs2)c2ccccc2)cc1 (stereo not given)	i
CCN1CCN(C(=O)C2CCCN2S(=O)(=O)c2cccc3nsnc23)CC1 (stereo not given)	i
COc1ccc(Cl)cc1N(CC(=O)Nc1c(C)cccc1C(C)C)S(C)(=O)=O	i
COc1ccc(-c2nn(C)c(=O)c3ccccc23)cc1CNC(=O)CN1CCOCC1	i
COc1ccc(N(C(=O)C(C)C)S(=O)(=O)c2ccc3c(c2)n(C)c(=O)n3C)cc1	i
CCCC(=O)Nc1ccc(Cl)c(NC(=O)COc2ccccc2[N+](=O)[O-])c1	i
COc1ccc(CCNC(=S)NNC(=O)C(C)Oc2ccc3c(c2)CCC3)cc1OC (stereo not given)	i
Cc1cc(OCC(=O)N(C)C)c2c3c(c(=O)oc2c1)CCCC3	i
CC(=O)Nc1ccc(Nc2ncnc3ccc(I)cc23)cc1	i
Cc1cc(=O)n2[nH]c(C(F)(F)F)c(-c3ccc(Cl)cc3)c2n1	0.8%
COC(=O)c1cc2c(=O)n3ccccc3nc2n(Cc2ccco2)c1=N	i
CC(C)c1cccc(C(C)C)c1NC(=O)Nc1ccccc1	i
CCOc1ccccc1OC(=O)c1cc2ccccc2oc1=O	33.4%
CN1CCN(c2ccc(NC(=O)c3cc4ccccc4o3)cc2)CC1	i
COc1cccc(-c2noc(-c3cc(C)ccc3C)n2)c1	i
CCc1cccc(CC)c1NC(=O)COc1ccccc1C	i
COc1ccc(C(=O)NC(CC(=O)O)c2ccc(Cl)cc2)cc1 (stereo not given)	i
Cc1ccc(S(=O)(=O)N(CC(=O)NCc2ccncc2)Cc2ccc(Cl)cc2)cc1	i
COC(=O)c1cc(NC(=O)c2ccccc2N(C)S(=O)(=O)c2ccccc2)ccc1Cl	i
Cc1cc(Cl)ccc1NC(=O)CSCc1c(Cl)cccc1Cl	1.5%
Cc1ccc(Cn2ncc3c(N4CCN(C(c5ccccc5)c5ccccc5)CC4)ncnc32)cc1	i
Cc1ccc(C)c(N2CCN(c3ncnc(N)c3[N+](=O)[O-])CC2)c1	i
Cc1cc(Cl)c(S(=O)(=O)N2CCc3ccccc32)cc1OCC(N)=O	i
Cc1ccc(S(=O)(=O)N2C(=O)CCC2C(=O)Nc2ccc(Nc3ccccc3)cc2)cc1 (stereo not given)	i
Fc1ccc(NC(=S)Nc2cc(Cl)ccc2Cl)cc1	i

Molecules shown so far that contain an aryl thioether with sulfur outside any ring (four):
molecule	Mtb H37Rv
Cc1cc(C)c2c(n1)sc1c(SCc3ccccc3)nc(C)nc12	1.6%
Cc1ccc(SCCNC(=O)c2ccc(F)cc2)cc1	i
Nc1cc(=O)nc(SCC(=O)N(C2CCCCC2)C2CCCCC2)n1-c1ccccc1	0.1%
CCOC(=O)c1c(C)[nH]c(C(=O)CSc2ncnc3sc(C)c(C)c23)c1C	i

(listing goes on)
molecule	Mtb H37Rv
COc1ccc(NC(=S)Nc2ccc(F)cc2)c(OC)c1	i
Cc1ccc(OC(=O)c2cc(=O)c3ccccc3o2)cc1	i
COc1c(Cl)cc(Cl)cc1CNC1CCCCC1	0.4%
COc1ccccc1NC(=S)NCCSc1ccc(C)cc1	1.1%
CCc1ccccc1NC(=O)CSc1nnc(-c2ccccc2)o1	2.3%
O=C(Nc1cccc(-c2nnc(-c3ccccc3)o2)c1)c1ccccc1F	i
COc1ccc(NC(=S)NC(=O)c2ccc(F)cc2Cl)c(OC)c1	0.7%
COc1ccccc1C(=O)NC(C(C)C)C(C)C	1.3%
Cc1sc2nc(SCCCC(=O)Nc3ccc(S(N)(=O)=O)cc3)nc(N)c2c1C	i
CCN(CC)C(=O)Cn1nnc(-c2ccc(OC)cc2)n1	i
COc1cccc(C(=O)CSc2nc(C)cc(-c3cccs3)c2C#N)c1	0.9%
Cc1cccc(C(=O)NC(C)c2nnc(SCC(=O)Nc3ccc(F)cc3)n2C)c1 (stereo not given)	i
Nc1c(C(=O)Nc2ccc([N+](=O)[O-])cc2)sc2nc3c(c(-c4ccco4)c12)CCC3	1.4%
COc1ccccc1OCC(=O)Nc1ccc(C(F)(F)F)cc1	1.0%
Cc1ccc([N+](=O)[O-])cc1NC(=O)CSc1nnc(-c2ccccc2Cl)n1C	i
COCCNCCCOc1ccc(Cl)cc1Br	i
Cc1c(NC(=S)NC(=O)C(c2ccccc2)c2ccccc2)cccc1C(=O)O	i
COc1cccc(NC(=O)NCc2ccccc2OC)c1	i
COc1ccc2cc(OCC(=O)NNC(=O)Nc3cccc(C)c3C)ccc2c1	3.5%
CCC(CO)NCc1cc(OC)c(OCc2ccccc2)cc1Br (stereo not given)	i
Cc1ccc(C)c(NC(=O)c2ccc(NS(C)(=O)=O)cc2)c1	i
O=C(NCc1ccccc1)c1ccccc1NS(=O)(=O)c1cc(Cl)ccc1Cl	i
CSc1nc(N)nc2sc3c(O)cc(=O)[nH]c3c12	i
CCc1ccc(NC(=O)Nc2c(C)n(C)n(-c3ccccc3)c2=O)cc1	i
CC(C)C(NC(=O)c1ccccc1NC(=O)c1ccccc1)C(=O)N1CCCCC1 (stereo not given)	i
C=CCn1c(SCC(=O)NCc2ccccc2)nnc1-c1ccc2ccccc2n1	i
CC(=O)Nc1ccc2nc(SCc3cccc(Br)c3)sc2c1	6.9%
Cc1cc(C)c(S(=O)(=O)N2CCCN(S(=O)(=O)c3c(C)cc(C)cc3C)CC2)c(C)c1	i
Cc1ccc(C(=O)Nc2cc(C)c(OCC(=O)N3CCOCC3)c(C)c2)cc1	i
CCc1cccc2c(C(=S)N3CCCC3)c[nH]c12	i
CC(=O)N(Cc1cc2ccc(C)cc2[nH]c1=O)c1ccc(C)cc1C	i
Nc1nc(SCc2ccc(Cl)cc2)ns1	?
O=C(Nc1ccc2c(c1)OCO2)c1ccccc1-c1ccccc1	i
Cc1cccc(NC(=O)C(C)Oc2cccc(Cl)c2)c1C (stereo not given)	i
C=CCOc1c(Cl)cc(CNC2CCCC2)cc1OC	0.0%
COC(=O)c1cc(C)sc1NC(=O)COc1ccccc1	i
CC(=O)N(Cc1cccs1)C1CCOC(C)(C)C1 (stereo not given)	1.3%
COc1ccccc1N1CCN(C(=O)Cn2nc(C(F)(F)F)c3c2CCC3)CC1	1.5%
Cc1ccc(NC(=O)c2ccc(N3CCCC3)c([N+](=O)[O-])c2)cc1Cl	i
CC(C)(C)c1cc(C(=O)N2CCc3ccccc3C2)ccn1	i
COc1ccc(-n2c(Cc3ccccc3)nnc2SCC(=O)Nc2ccc(Br)cc2C(F)(F)F)cc1	i
Cc1c(O)ccc2c(=O)c(-c3ccccc3Cl)coc12	i
CCOc1cc(C=O)cc(Cl)c1OCC(=O)O	i
COc1ccc(S(=O)(=O)N2CCN(c3ccc([N+](=O)[O-])c(N4CCCCC4)c3)CC2)cc1OC	i
Cc1cccc(Nc2nc(N)nc(CSc3nccn3C)n2)c1	i
CCOC(=O)c1ccc(NC(=O)CSc2nnc3ccccn23)cc1	i
C=CCn1c(SCC(=O)N2CCc3ccccc32)nnc1-c1ccncc1	i
COc1ccc(-c2csc(NC(=O)CCN3C(=O)c4ccccc4C3=O)n2)cc1	i
Cc1ccc(-c2nc3cc(N)ccc3o2)cc1N	i
COc1ccc(OCCC(=O)NCC23CC4CC(CC(C4)C2)C3)cc1	i

Following part
molecule	Mtb H37Rv
CC1=NC(C(F)(F)F)(C(F)(F)F)C(C#N)=C(C)N1	i
O=C(NC1c2ccccc2-c2ccccc21)N(c1ccccc1)c1ccccc1	0.2%
CCc1cccc(OCC(=O)NC2CCCCC2)c1	2.7%
O=C(Nc1ccccc1Cc1ccccc1)c1cccnc1	i
COc1cc2c(cc1NC(=O)COc1cccc(C)c1C)oc1ccccc12	i
COC(=O)c1cc(C)sc1NC(=S)NNC(=O)c1cccc(N(C)C)c1	i
Cc1cccc(OCC(=O)Nc2ccc(S(=O)(=O)N(C)C)cc2)c1	2.8%
Cc1ccc(N2CC(C(=O)Nc3cccc(Cl)c3Cl)CC2=O)cc1 (stereo not given)	i
Cc1cc(NS(=O)(=O)c2ccc(NC(=O)COc3ccc(Br)c(C)c3)cc2)no1	i
Cc1ccc(S(=O)(=O)N(CC(=O)N2CCCCCC2)Cc2ccc(Cl)cc2)cc1	i
COc1cccc(C2CC(C(F)(F)F)n3nc(C(=O)NCC4CCCO4)cc3N2)c1 (stereo not given)	i
COc1ccc(C(=O)C(CN2CCOCC2)c2ccccc2)cc1 (stereo not given)	2.09µg/mL*
c1ccc(SCc2nc(-c3ccccn3)no2)cc1	i
COC(=O)Cc1ccc(NC(=O)c2cccs2)cc1	i
COc1cc(C(=O)Nc2cc(C(=O)O)cc(C(=O)O)c2)ccc1OC(C)=O	i
Cc1cc(C)c(OCC(O)Cn2cnc3cc(C)c(C)cc32)c(C)c1 (stereo not given)	?
Cc1ccc(S(=O)(=O)N(CC(=O)N2CCN(C)CC2)Cc2cccc(C)c2)cc1	i
CC1(C)CC(NC(=O)c2ccco2)CC(C)(C)N1O	i
CC(C)c1ccccc1NC(=O)CSc1nnc(-c2ccncc2)n1-c1ccc(Cl)cc1	i
CCOC(=O)c1c(NC(=O)CN2C(=O)c3ccccc3C2=O)sc2c1CCC2	i
Cc1ccc(F)c(NC(=O)C2CCCCC2C(=O)O)c1 (stereo not given)	i
COc1ccc(CC(=O)NCc2nnc(SCC(=O)Nc3cccc(C(F)(F)F)c3)n2C)cc1	i
CCOC(=O)Cn1c(=O)n(CC(=O)OCC)c2ccccc21	i
CN(C)c1ccc(NC(=O)c2ccc(N(C)C)cc2)cc1	4.5%
O=C(CSc1ccc(F)cc1)Nc1ccccc1OC(F)F	?

Two consecutive compounds out of the list so far:
molecule	Mtb H37Rv
CC1=NC(C(F)(F)F)(C(F)(F)F)C(C#N)=C(C)N1	i
O=C(NC1c2ccccc2-c2ccccc21)N(c1ccccc1)c1ccccc1	0.2%

(more compounds)
molecule	Mtb H37Rv
CCCCC(=O)Nc1ccc(NC(=O)c2ccccc2I)cc1OC	i
Cc1cc(C)cc(OCC(=O)Nc2ccc(Cl)cc2C(F)(F)F)c1	i
N#CC1=C(N)Oc2n[nH]c(-c3cccs3)c2C12C(=O)Nc1ccccc12 (stereo not given)	i
Cc1ccc(N2CCN(C(=O)N3CCOCC3)CC2)cc1C	i
COc1cc(C=O)ccc1OCCOc1ccccc1[N+](=O)[O-]	i
O=C(NCCSCc1ccco1)c1ccc(I)cc1	13.9%
C=C(C)CSc1nc(=O)cc(N)n1-c1ccc(F)cc1	i
COc1ccc(-c2nn(-c3ccccc3)cc2C(=O)NCc2ccccc2)cc1OC	i
Cc1ccc(C(=O)NC(=S)Nc2cccc(C(=O)O)c2C)cc1	1.5%
CCc1cc(OCCOCCN2CCN(CC)CC2)ccc1Cl	i
CC12CCC(C(=O)O)(c3nc4c(ccc5ncccc54)nc31)C2(C)C (stereo not given)	i
Cc1ccc(CN(c2ccc(C(=O)Nc3cccc(Br)c3)cc2)S(C)(=O)=O)cc1	i
c1ccc(-c2nnc(CN3CCC4(CC3)OCCO4)o2)cc1	2.0%
CC(C)(C)NCCCOc1ccc(OCc2ccccc2)cc1	i
CCc1c(C)sc(NC(=O)CCc2ccc(OC)cc2)c1C(N)=O	i
O=c1[nH]nc(CSCc2ccccc2Cl)[nH]1	i
COc1ccccc1CCNCc1cccc(Br)c1	2.8%

Screening results (PubChem BioAssay)
